High-throughput results deposited in PubChem BioAssay by ICCB-Longwood Screening Facility, Harvard Medical School.
GIV Gai3 FP: inhibitors of GIV peptide binding to Galpha-i3, primary screen, biochemical, fluorescence polarization, FITC-GIV GBA peptide, rat Galphai3 | hit rate 0.42% among 210,000 | Guanine nucleotide-binding protein G(i) subunit alpha-3 (Rattus norvegicus), P08753 | 90 min; stronger effect = lower value; scaled: aluminum fluoride 0%, vehicle 100% | percent of control (FP), % (test concentration not listed);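 active = replicate mean at 85% of control or lower, very high polarization wells dropped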;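 also: wells of about 15 µL received 100 nL stock; the first replicate is given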
Target sequence (P08753 whole entry, looked up): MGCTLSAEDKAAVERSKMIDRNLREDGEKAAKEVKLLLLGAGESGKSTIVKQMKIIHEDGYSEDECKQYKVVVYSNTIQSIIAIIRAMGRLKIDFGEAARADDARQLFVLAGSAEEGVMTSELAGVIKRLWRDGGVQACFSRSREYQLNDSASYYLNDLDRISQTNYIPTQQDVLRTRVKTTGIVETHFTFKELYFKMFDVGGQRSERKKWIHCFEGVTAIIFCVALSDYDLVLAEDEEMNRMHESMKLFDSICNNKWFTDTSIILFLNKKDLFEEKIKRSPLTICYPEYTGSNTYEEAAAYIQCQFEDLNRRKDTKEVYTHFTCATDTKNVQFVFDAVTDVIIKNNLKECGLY
* = called active by the depositor. These rows are one share of the data, so the mix of outcomes need not match the whole.

SMILES	GIV Gai3 FP
CCc1cc2c(NC(C)C)ncnc2s1	105.7
O=C(CSc1nc2ccccc2n1S(=O)(=O)Cc1ccccc1)c1ccc(Cl)cc1	111.6
CC1(C)CC(=O)C2=C(C1)N(c1ccc(Br)cc1F)C(N)=C(C#N)C2c1cccs1 (configuration not stated)	104.5
CCS(=O)(=O)N1CCN(c2ncnc3c2nnn3-c2ccc(F)cc2)CC1	99.8
Oc1ccccc1CN1CCN(Cc2ccccc2O)C1c1c(O)ccc2oc3c(c12)CCCC3	109.1
CCc1ccc(C2=NN(c3ccccc3)C3(SC(C(C)=O)=NN3c3ccc(Br)cc3)c3ccccc32)cc1 (configuration not stated)	108.0
Cc1cc2c(cc1C)C(C1=C(O)CC(C)(C)CC1=O)=NC(C)(C)C2	113.8
COc1ccc2c(c1)N(C)/C(=C1/SC(=S)N(CC(=O)O)C1=O)S2	114.4
Cc1[nH]n(-c2ccccc2)c(=O)c1C(c1ccc(OC(=O)c2ccccc2F)cc1)c1c(C)[nH]n(-c2ccccc2)c1=O	104.9
CCOC(=O)C1C(C)=C(Nc2ccc(OC)cc2)C(=O)N1c1ccc(OC)cc1 (configuration not stated)	102.1
CCC(C)NC(=O)CC1CCN(C(=O)c2sc(-c3ccc(C)cc3)nc2C)CC1 (configuration not stated)	94.3
Fc1ccc(-c2noc(CCc3nnc4ccc(N5CCN(Cc6ccccc6)CC5)nn34)n2)cc1	107.7
CCCN1CCN(C(=O)c2ccc(-c3nc4ccccc4n(CC(C)C)c3=O)cc2)CC1	99.3
O=C(Cn1cnc2c(sc3ncccc32)c1=O)Nc1cccc(F)c1	96.5
O=S(=O)(c1cc(-c2nnc(C3CCCC3)o2)co1)N1CCCCCC1	103.8
c1ccc(CNc2nccc3c2c2ncnc(-c4ccccc4)c2n3Cc2ccccc2)cc1	106.5
CCOc1ccc(NC(=O)CSC2=C(C#N)C(c3cccs3)CC(=O)N2)cc1 (configuration not stated)	104.3
Cc1ccc(-c2cnnc(-n3nc(C)c4c3NC(=O)CC4c3ccc(C)c(C)c3)n2)cc1 (configuration not stated)	97.6
O=c1n(Cc2cccc(Br)c2)nc2c(S(=O)(=O)N3CCCC3)cccn12	100.8
COc1ccc(-c2nc(Cn3cnc(S(=O)(=O)N4CCCCC4)c3)no2)c(OC)c1	106.3
CCCNC(=O)c1cc2c(s1)N(C)CCC2	100.0
COc1ccc(N=C2SC(C(=O)N3CCN(c4ccc(OC)cc4)CC3)CC(=O)N2C)cc1 (configuration not stated)	105.3
COCCNC(=O)C1CCN(c2ncnc3c2oc2ccccc23)CC1	103.3
Cc1cccc(N=C2c3ccccc3-c3nc4ccccc4cc32)c1	105.9
Cc1[nH]c(C)c(S(=O)(=O)N2CCCC2)c1-c1nnc(C2CCC2)o1	98.7
CCCCOc1ccc(C2C=C(Nc3ccc(C)c(C)c3)C(=O)N2c2ccc(C)c(C)c2)cc1 (configuration not stated)	103.6
CCCCN(C)c1nc(-c2ccc([N+](=O)[O-])cc2)nc2ccccc12	105.1
O=C(NCc1ccc2c(c1)CCCN2C(=O)C1CCC1)c1cc(F)cc(F)c1	103.4
CC1=C(C(=O)OCC2CCCO2)C(c2coc3ccc(C)cc3c2=O)C2=C(CC(c3cccs3)CC2=O)N1 (configuration not stated)	99.5
Cc1cccc(-c2nc(-c3cccnc3)no2)c1	100.0
COc1ccc(OC)c(S(=O)(=O)Nc2ccc(C3(C(=O)NCCC(C)C)CCC3)cc2)c1	94.9
O=C(CSc1nc(NC2CCCCC2)c2ccccc2n1)NCc1ccco1	113.5
CCOC(=O)C1(C)C=C(Nc2cccc(Cl)c2)C(=O)N1c1cccc(Cl)c1 (configuration not stated)	102.9
O=C(OCCCN=C1NS(=O)(=O)c2ccccc21)C(c1ccccc1)N1CCCCC1 (configuration not stated)	107.1
COc1cccc(-c2nc(-c3ccccc3O)[nH]c2-c2cccc(OC)c2)c1	107.8
Cc1nc(-c2csc(S(=O)(=O)NCc3ccc(F)c(Cl)c3)c2)sc1C	102.3
Fc1cccc(-c2nnc3ccc4ccccc4n23)c1	103.9
CC1CCN(S(=O)(=O)c2ccc3nn(CC(=O)OC(C)(C)C)c(=O)n3c2)CC1	103.4
Cc1ccc(N=Cc2c(O)n(-c3ccccc3)c(=S)n(-c3ccccc3)c2=O)cc1C	113.4
COc1cc(Cl)c(NS(=O)(=O)c2cc(-c3nc(C)c(C)s3)sc2C)c(OC)c1	99.4
CC(=O)NC1=NC(=O)/C(=C/c2ccc(-c3ccccc3C(=O)O)o2)S1	130.2
CCSc1nnc(-c2nn(C)c3c2CN(S(=O)(=O)c2cccc4cccnc24)CC3)n1CC	108.6
O=S(=O)(NC1CCCC1)c1cc(-c2noc(C3CC3)n2)cs1	97.0
COc1cc(C2/C(=C(\O)c3ccccc3)C(=O)C(=O)N2c2cccc(Cl)c2)ccc1O (configuration not stated)	100.9
CCCc1cc(C2CCCN2Cc2cccc(OC)c2O)no1 (configuration not stated)	100.6
Cc1ccc(-n2cc(-c3ccccc3)c3c(NCCCN4CCOCC4)ncnc32)cc1Cl	107.8
COc1ccc(N=C2NC(=O)/C(=C\c3ccc(OCC(C)C)cc3)S2)cc1	107.2
CC1SC2(C(=O)Nc3ccccc32)N(c2cccc(F)c2)C1=O (configuration not stated)	119.1
COC(=O)c1sccc1NC(=O)N1CCCC1c1cc(C(C)C)no1 (configuration not stated)	105.2
CCOc1cc(C2C(C#N)=C(N)Oc3cc(C)oc(=O)c32)cc([N+](=O)[O-])c1OC(=O)N1CCOCC1 (configuration not stated)	106.0
Cc1cccc(C(=O)N2CCN(c3cc(C)c(C#N)c4nc5ccccc5n34)CC2)c1	112.9
O=C(Cc1ccccc1)NCc1nnc(SCC(=O)N2N=C(c3cccs3)CC2c2ccc(F)cc2)n1Cc1ccccc1 (configuration not stated)	103.2
Cn1c(N2CCCN(C(=O)CC3CCCC3)CC2)cc(=O)n(C)c1=O	103.7
CCOCCOC(=O)C1=C(C)NC(=O)CC1c1cccc(Cl)c1Cl (configuration not stated)	112.3
COc1ccc(N2CCN(S(=O)(=O)c3cc(-c4nc(C(C)C)cs4)cs3)CC2)cc1	98.4
CCOC(=O)C1=C(N)n2c(s/c(=C\c3cc(Br)ccc3F)c2=O)=C(C#N)C1c1cc(Br)ccc1F (configuration not stated)	120.7
COCC1=C(C(=O)OC)C(c2ccc(F)c(Br)c2)C(C#N)=C(N)O1 (configuration not stated)	129.0
Nc1cnn2c1N=NC2SCC(=O)Nc1nnc(SCC(=O)Nc2ccccc2)s1 (configuration not stated)	110.7
CCOC(=O)C1CCCN(C(=O)c2sc3ncn(CC(=O)Nc4ccc(C)c(Cl)c4)c(=O)c3c2C)C1 (configuration not stated)	115.3
c1ccc(C2(c3ccccc3)OC3c4ccccc4OCN3c3ccccc32)cc1 (configuration not stated)	110.5

(further entries)
SMILES	GIV Gai3 FP
O=C1C2C3CCC(C3)C2C(=O)N1c1cc(C(F)(F)F)ccc1Cl (configuration not stated)	103.7
COc1ccc(CNc2c(C(=O)NCc3cccnc3)cnc3c2c(C)nn3-c2ccccc2)cc1	103.8
Cc1ccc(CN2CCCN(S(C)(=O)=O)CC2)s1	107.0
Cn1c2ccccc2c2c1cc(C#N)c(=O)n2-c1ccc([N+](=O)[O-])cc1	118.2
O=C(Cn1ncn2nc3c(c2c1=O)CCCC3)Nc1ccc(F)cc1	114.8
CCc1cc(Sc2ccc(NC(=O)Nc3ccc(Br)cc3)cc2)n2nc(C)nc2n1	104.2
CCOC(=O)C1=C(C)N=c2s/c(=C/c3cccc([N+](=O)[O-])c3O)c(=O)n2C1c1ccc(OC)cc1 (configuration not stated)	98.7
CCC(C)NC(=O)Cn1nc2n(CCC(=O)NCC(C)C)c(=O)c3ccccc3n2c1=O (configuration not stated)	99.7
O=C1CN(Cc2ccccc2F)S(=O)(=O)c2ccccc2N1Cc1ccc(Cl)cc1	105.4
COc1ccc(NC(=O)c2ccc(N3CC4CC(C3)c3cccc(=O)n3C4)c(NC(=O)c3ccccc3Cl)c2)cc1OC (configuration not stated)	106.3
COc1cccc(N2CCN(C(=O)Cn3ccc4c(c(C)nn4-c4ccccc4)c3=O)CC2)c1	101.1
CCCc1ccc(OCc2nc(-c3ccc(NC(=O)c4cccs4)cc3)no2)cc1	98.0
Cc1cc(C)cc(NC(=O)c2ccc(=O)n(Cc3cccc(F)c3)c2)c1	104.7
CCC(C)NC(=O)c1ccc(-c2nc(-c3ccccc3)no2)cc1 (configuration not stated)	102.3
CCC(C)NC(=O)c1nc2nc(-c3ccc(C)cc3)cc(C(F)(F)F)n2n1 (configuration not stated)	105.3
O=C(CSc1n[nH]c(-c2ccco2)n1)c1ccc(Cl)cc1	99.3
CCc1cc2c(N(CC)CC)ncnc2s1	107.2
CNC(=O)c1ccc(-c2nc3cc(NS(=O)(=O)c4cccc(F)c4)ccc3n2C)cc1	102.6
Cc1ccc(C(O)(C(=O)NN(C(=O)c2cccnc2Cl)c2ccccc2)c2ccc(C)cc2)cc1	103.8
CCc1noc(-c2cccn2C)n1	100.1
N#CC1=C(N)C(C#N)(C#N)C(c2cccc(Br)c2)C2CN(Cc3ccccc3)CC=C12 (configuration not stated)	114.2
O=C(NCCN1CCN(C(=O)c2ccc(Br)cc2)CC1)C(=O)NCc1ccco1	98.5
COc1ccc2c(c1)N(CCCS(=O)(=O)[O-])/C(=C/c1sc3ccccc3[n+]1C)S2	117.9
CCCOc1ccc(CN2CCCC2c2cc(C)no2)cc1OCC (configuration not stated)	108.2

7 compounds from above, sorted by molecular weight, lowest first:
SMILES	GIV Gai3 FP
CCc1noc(-c2cccn2C)n1	100.1
CCCOc1ccc(CN2CCCC2c2cc(C)no2)cc1OCC (configuration not stated)	108.2
Cc1cc(C)cc(NC(=O)c2ccc(=O)n(Cc3cccc(F)c3)c2)c1	104.7
CNC(=O)c1ccc(-c2nc3cc(NS(=O)(=O)c4cccc(F)c4)ccc3n2C)cc1	102.6
COc1ccc2c(c1)N(CCCS(=O)(=O)[O-])/C(=C/c1sc3ccccc3[n+]1C)S2	117.9
N#CC1=C(N)C(C#N)(C#N)C(c2cccc(Br)c2)C2CN(Cc3ccccc3)CC=C12 (configuration not stated)	114.2
Cc1ccc(C(O)(C(=O)NN(C(=O)c2cccnc2Cl)c2ccccc2)c2ccc(C)cc2)cc1	103.8

(next part)
SMILES	GIV Gai3 FP
COc1ccccc1NC(=O)c1c(NC(=O)c2ccncc2)sc2c1CCCCC2	114.3
CCOc1cc(/C=C(\C#N)c2nnc3n2CCCCC3)ccc1O	105.0
COc1ccc(NC(=O)Nc2nnc(SCC(=O)Nc3ccccc3C)s2)cc1	98.3
O=S1(=O)CC(c2ccc(O)cc2)CS(=O)(=O)C1	118.4
O=C(Cn1cnc2ccccc2c1=O)NCC(=O)N1CCN(c2cccc(Cl)c2)CC1	99.5
COC(=O)c1cc(C)nc2c1c(=O)n(CC(=O)c1c(C)n(C)c3ccccc13)c(=O)n2C	114.3
Cn1c(NCCO)nc2c(c1=O)C1(CCCCC1)Cc1ccccc1-2	107.8
Nc1nc(CSc2nnnn2Cc2ccccc2)nc(N2CCOCC2)n1	105.0
O=C(Nc1cc(F)cc(F)c1)c1ccc(-c2ccc(F)cc2)nc1	110.4
Cc1ccc(-c2ccc(OCCNS(C)(=O)=O)nn2)cc1	98.9
COc1cccc(NC(=O)c2nn(-c3ccc(Cl)cc3)c3c(=O)n(C)cnc23)c1	106.8
Cc1sc(-c2nnc(C(=O)N3CCCC3)o2)cc1S(=O)(=O)NCc1cccnc1	99.7

Looked up by structure from above (4):
SMILES	GIV Gai3 FP
O=S1(=O)CC(c2ccc(O)cc2)CS(=O)(=O)C1	118.4
Cc1sc(-c2nnc(C(=O)N3CCCC3)o2)cc1S(=O)(=O)NCc1cccnc1	99.7
Nc1nc(CSc2nnnn2Cc2ccccc2)nc(N2CCOCC2)n1	105.0
Cn1c(NCCO)nc2c(c1=O)C1(CCCCC1)Cc1ccccc1-2	107.8

The results go on.
SMILES	GIV Gai3 FP
Cc1sc(-c2nc(-c3ccccc3)no2)cc1S(=O)(=O)N1CCCCC1C (configuration not stated)	100.5
CC1=C(c2ccc(F)cc2)S(=O)(=O)N=C1N1CCC(NC(=O)NC(C)(C)C)CC1	102.2
COc1ccc(NS(=O)(=O)c2c(C)sc(C)c2-c2cc(C(F)(F)F)on2)cc1	105.4
COc1ccc(C(=O)Nn2c(SCC(=O)c3ccc(F)cc3)nc3ccccc3c2=O)cc1	105.8
O=C(c1ccc2ccnc(N3CCN(c4ccc(F)cc4)CC3)c2c1)N1CCCC1	102.6
CCc1ccc(C2(O)CN(c3ccc(OC)cc3)C3=[N+]2CCCS3)cc1 (configuration not stated)	117.6
COC(CNC(=O)c1cc(S(=O)(=O)N2CC(C)CC(C)C2)ccc1Sc1ccc(F)cc1)OC (configuration not stated)	110.0
O=C(CSc1nc2cc(C(=O)NCc3ccco3)ccc2c(=O)n1C1CCCCC1)NCCc1ccccc1	111.1
Cc1nc(-c2cc(S(=O)(=O)Nc3cccc(Cl)c3C)c(C)s2)cs1	102.0
COc1ccc(Br)cc1C1N(c2ccccc2)CCN1c1ccccc1	120.1
Cc1nc(CNC(=O)[C@H]2CCCN2S(=O)(=O)c2ccc(Br)cc2)cs1	106.1
O=C(N/N=C\c1cn(-c2ccccc2)nc1-c1cccs1)c1ccncc1	116.9
Cc1ccc(-c2nc3n(c2CNC(=O)C(C)(C)C)CCS3)cc1	94.1
CCCc1cc(C2CCCN2Cc2ccc(OC)cc2)no1 (configuration not stated)	103.8
CCOc1ccc(-c2noc(Cn3nc(-c4ccccc4)c4ccccc4c3=O)n2)cc1OC	102.9
O=C1/C(=C\c2c(N3CCN(CCO)CC3)nc3ccccn3c2=O)SC(=S)N1CC1CCCO1 (configuration not stated)	25.1*
CC(=O)NS(=O)(=O)c1ccc(N=Cc2nc(-c3cccc4ccccc34)oc2O)cc1	144.5
C=CCOc1ccc(C2CC(=O)Nc3c2c(C)nn3-c2nc3ccc(OC)cc3s2)cc1 (configuration not stated)	101.3
CCOC(=O)CC(=O)CSc1nc(-c2cccs2)cc(-c2ccc(F)cc2)c1C#N	107.6
Cc1ccc(/C(O)=C2\C(=O)C(=O)N(CCCN3CCOCC3)C2c2ccc(Cl)cc2)cc1 (configuration not stated)	112.8
